# Bioassay records: PubChem, several laboratories
# CBX7 AlphaScr: CBX7 inhibition, primary AlphaScreen. O95931. AlphaScreen His6-CBX7 / biotin-H3K27me3 peptide binding; active compounds read low. normalised signal (fraction of DMSO) (concentration not given with the values). hit rate 1.1% among 66,000. AID 1224903; in the data active = normalised signal below about 0.5;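 note: 100 nL library stock added to about 20 µL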
# Target sequence (O95931 whole entry, looked up): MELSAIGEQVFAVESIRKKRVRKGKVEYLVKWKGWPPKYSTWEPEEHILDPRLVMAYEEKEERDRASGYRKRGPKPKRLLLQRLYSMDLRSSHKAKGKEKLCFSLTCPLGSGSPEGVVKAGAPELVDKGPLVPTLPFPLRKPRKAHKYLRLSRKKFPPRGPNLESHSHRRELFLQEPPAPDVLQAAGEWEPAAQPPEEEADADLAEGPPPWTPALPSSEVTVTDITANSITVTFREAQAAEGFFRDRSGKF
# CBX7 AlphaScr z-score: further read-out of CBX7 AlphaScr, marked with its call; z-score; measured here: z-score of CBX7 signal; some inactives read as strong as hits; reference of the scale not given here;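 same signal on another scale; lower means less binding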
# Active calls of the source: *.
# A first look:
Structure	CBX7 AlphaScr	CBX7 AlphaScr z-score
COc1ccc(CCC(=O)Nc2ccc(-c3noc(-c4cc(Cl)ccc4OC)n3)cc2)cc1	1	0.21
CC(C)(CC(=O)O)Cc1nc(-c2ccc(Cl)cc2)no1	0.94	-1
O=C(NCc1ccccc1Cl)C1CCN(C(=O)c2sccc2-n2cccc2)CC1	0.81	-5.3
Clc1ccc(CNc2nc3ccccc3n2CCN2CCOCC2)cc1	1	0.72

# All compounds of this part (from the top)
Structure	CBX7 AlphaScr	CBX7 AlphaScr z-score
COc1ccc(CCC(=O)Nc2ccc(-c3noc(-c4cc(Cl)ccc4OC)n3)cc2)cc1	1	0.21
CC(C)(CC(=O)O)Cc1nc(-c2ccc(Cl)cc2)no1	0.94	-1
O=C(NCc1ccccc1Cl)C1CCN(C(=O)c2sccc2-n2cccc2)CC1	0.81	-5.3
Clc1ccc(CNc2nc3ccccc3n2CCN2CCOCC2)cc1	1	0.72
CCc1ccc2nc(N3CCC(C(=O)NCCCN4CCCCC4CC)CC3)sc2c1 (stereo not drawn)	1	-0.069
COc1ccc(Cl)cc1C(=O)Nc1cc(-c2nc3ncccc3o2)ccc1C	1	0.99
COC(=O)c1ccc(NC(=O)Nc2ccc3snnc3c2)cc1	1	1
O=C(CSc1nnnn1-c1ccccc1)Nc1ncccn1	0.13*	-4.1*
Cc1ccccc1N(C)C(=O)Cc1c(C(=O)O)[nH]c2ccccc12	0.98	-0.38
CN(C)S(=O)(=O)c1ccc(C(=O)Nc2cccc(-c3nc4ccccc4s3)c2)cc1	0.99	-0.089
COc1ccc(-c2cc(C(F)(F)F)nc(N3CCc4ccccc4C3)n2)cc1OC	1.3	15
CCCN1C(=O)Cn2cccc2C1C(=O)NC1CCCCC1 (stereo not drawn)	0.99	-0.029

Structure	CBX7 AlphaScr	CBX7 AlphaScr z-score
O=C(Nc1ccccc1F)C(Cc1ccccc1)NS(=O)(=O)c1cccc2cccnc12 (stereo not drawn)	0.93	-0.59
COc1ccc(C2CC(c3ccc(C)cc3)Nc3ncnn32)c(OC)c1OC (stereo not drawn)	1	0.86
CCOC(=O)c1c(NC(=O)c2ccc(F)cc2)sc2c1CCC(C(C)(C)C)C2 (stereo not drawn)	1.4	4.7
CC1CC(C)CN(CCCNC(=O)C2c3ccccc3C(=O)N2CCc2ccc(Cl)cc2)C1 (stereo not drawn)	1	1
CSc1c(CC(=O)Nc2ccc(Cl)cc2)n(C)c2ccccc12	1.1	0.9
Cc1ccc(NC(=O)CSc2ccc3nnc(-c4ccccc4)n3n2)cc1	1	0.69
Cc1cccn2cc(COc3ccc(Cl)cc3)nc12	0.87	-2.1
CCN(CCCNC(=O)CCc1nc(-c2ccc(C)cc2)no1)c1cccc(C)c1	0.84	-2.4
COc1cccc(CNC(=O)c2cnn3c(C)c(Cc4ccc(C)cc4)c(C)nc23)c1	0.76	-6.5
CC(=O)N1CCc2cc(S(=O)(=O)NCC(=O)NCc3ccccc3Cl)ccc21	1.1	1.5
Cc1ccc(CCNC(=O)C2CCCN(S(C)(=O)=O)C2)cc1 (stereo not drawn)	1.1	3.7
COc1ccc(Cn2c(CCC(=O)Nc3ccccc3OC)nc3cccnc32)cc1	0.93	-1.4

Structure	CBX7 AlphaScr	CBX7 AlphaScr z-score
CCC(Sc1nc2ccccc2[nH]1)C(=O)Nc1ccc(S(N)(=O)=O)cc1 (stereo not drawn)	1	0.57
COc1ccccc1Nc1cc(C(=O)NCCc2ccc(Cl)cc2)c2ccccc2n1	0.94	-0.93
CCCCNC(=O)CCC(=O)Nc1ccc2nc(N3CCOCC3)cc(C)c2c1	1.1	0.12
CC(C)c1ccc(Nc2c(-c3ccc(O)cc3)nc3cnccn23)cc1	1.1	0.96
Cc1c(C(=O)O)oc2ccc(S(=O)(=O)NCc3ccccc3)cc12	1.1	1.4
CCN(CC)CCSc1nc(O)c(CC(C)C)c(=O)[nH]1	0.99	-0.23
O=C(CN1C(=O)CCSc2ccccc21)N1CCN(Cc2ccccc2)CC1	0.96	-0.8
O=C(CN1C(=O)CSc2ccc(S(=O)(=O)N3CCCCC3)cc21)NCCc1ccccc1	1	0.54
COc1ccc(-c2nc(Nc3ccc(Cl)cc3)c3ccccc3n2)cc1OC	1	1.2
CCOC(=O)c1c(CSc2ccc(C)cc2)n(C)c2cc(Br)c(OC(C)=O)cc12	1	0.21
Cc1ccccc1-c1nc(CS(=O)(=O)CC(=O)N2CCCCC2)c(C)o1	0.99	-0.13
C=CCc1cc(C)ccc1OCC(O)CN1CCCCC1 (stereo not drawn)	1	-0.0017

Structure	CBX7 AlphaScr	CBX7 AlphaScr z-score
CCOc1ccc(OCCOCCn2c(-c3ccc(Cl)cc3)nc3ccccc3c2=O)cc1	1.3	3.4
COc1cccc(/C=C/c2cc(C(F)(F)F)[nH]c(=O)n2)c1OCC(=O)O	1.2	2
O=C(CNc1ccccc1-c1nc2ccccc2[nH]c1=O)N1CCCC1	1.1	2
CCN1CCN(C(=O)c2sc3ncn(CC(=O)Nc4ccc(C)c(Cl)c4)c(=O)c3c2C)CC1	1.5	1.7
C=CCN1C(=O)c2ccccc2Sc2ccc(C(=O)NCc3ccccc3Cl)cc21	0.93	-0.065
Cc1cccc(C)c1NC(=O)c1cc(-c2ccccc2)nc2ccccc12	0.95	-1.2
CCN(CC)CCCNC(=O)Cn1ncc2c1-c1cc(C)ccc1OC2	1.1	1.5
CCN(Cc1ccccc1)C(=O)c1ccc2c(c1)NC(=O)c1ccccc1S2	0.91	-2.6
CCN(CC)CCNC(=O)c1ccc2c(c1)N(Cc1cc(C)ccc1C)C(=O)c1ccccc1S2	0.98	-0.43
COc1ccc(Cl)cc1NC(=O)Cc1cn(C)c2ccccc12	0.59	-8.7
CCOC(=O)c1ccc(NS(=O)(=O)c2ccc3c(c2)CCN3C(C)=O)cc1	1.4	3.7
Cc1ccccc1-c1nnc(SCC(=O)N2CCCc3ccccc32)o1	1.4	0.88

Structure	CBX7 AlphaScr	CBX7 AlphaScr z-score
CCOC(=O)c1sc2nc(C)n(CC(=O)Nc3ccc(OC)cc3OC)c(=O)c2c1C	1	1
C=CCNc1nc(-c2c(C)nc3sccn23)cs1	0.97	-1.1
Cc1ccc(CNC(=O)c2oc3ccc(S(=O)(=O)N4CCOCC4)cc3c2C)cc1	0.97	-0.88
Cc1ccc(CNC(=O)c2cn(C3CCCC3)c(=O)c3c2c2ccccc2n3C)cc1	0.89	-2.8
O=C(NC1CCCCC1)C1c2cccn2CC(=O)N1Cc1ccc(Cl)cc1 (stereo not drawn)	0.96	-1.1
COc1ccc(-c2csc(Nc3ccccn3)n2)cc1	0.91	-2.3
CCOC(=O)c1c(NC(=O)c2cccs2)sc(C)c1C	1.2	1.3
COc1cc2[nH]c(=O)n(Cc3ccc(C(=O)NC(C)CCc4ccccc4)cc3)c(=O)c2cc1OC (stereo not drawn)	1	0.83
COCCCNC(=O)c1cc(-c2ccccn2)nc2ccc(S(=O)(=O)N3CCOCC3)cc12	1.4	2.7
CCCCNC(=O)c1cc(-c2ccc(OC)cc2)nc2ccc(C(C)C)cc12	1	0.89
COC(=O)c1c(NC(=O)COc2ccccc2Cl)sc2c1CCCC2	0.98	-0.59
Nc1nonc1-c1noc(-c2cc(Br)ccc2OCc2ccccc2Cl)n1	1	0.29

Structure	CBX7 AlphaScr	CBX7 AlphaScr z-score
COC(=O)c1cccc(C(=O)Nc2nnc(C)s2)n1	0.87	-1.5
O=C1c2ccccc2C(Nc2ccc3c(c2)OCCO3)N1c1ccc(Cl)cc1 (stereo not drawn)	0.83	-6.1
CCCN(CCC)CC(O)CN(c1ccc(C)cc1)S(=O)(=O)c1ccccc1 (stereo not drawn)	1.4	0.88
O=C(Nc1ccccc1)C(Cc1ccccc1)N1C(=O)c2ccccc2C1=O (stereo not drawn)	0.81	-0.78
COc1ccc(-n2ccnc2SCC(=O)Nc2ccc(OC)cc2OC)cc1	0.94	-0.94
CCCCN(CCCNC(=O)CN1C(=O)COc2ccc(C(C)(C)C)cc21)c1ccccc1	0.54	-9.2
NC(=O)CN1C(=O)C(O)(CC(=O)c2ccc(Br)cc2)c2ccccc21 (stereo not drawn)	0.99	-0.008
Cc1ccc(NC(=O)c2cnn(-c3ccccc3)c2C2CCN(C(=O)OC(C)(C)C)CC2)c(Cl)c1	0.93	-2.3
Cc1ccc(-c2nc3ccccc3nc2-c2ccc(C)cc2)cc1	1.5	3.2
COc1ccc(N2CCN(C(c3cccs3)C(C)NC(=O)c3cccc(OC)c3OC)CC2)cc1 (stereo not drawn)	0.64	-8.8
Cc1ccnc(NC(=O)C(NS(=O)(=O)c2ccc3c(c2)CCC(=O)N3)c2ccccc2)c1 (stereo not drawn)	1	0.19
CCN(CC)CCCNC(=O)C1CCC(=O)N1Cc1ccc(C)cc1 (stereo not drawn)	1	0.58

Structure	CBX7 AlphaScr	CBX7 AlphaScr z-score
COCc1nc2ccccc2n1CCOc1ccccc1C	0.96	-1.5
CCOc1cc2c(cc1OCC)C(c1nc(CC)[nH]c1C)NCC2 (stereo not drawn)	0.99	-0.17
CC(=O)Nc1ccc(N2C(=O)CC(N3CCC(N4CCCCC4)CC3)C2=O)cc1 (stereo not drawn)	0.97	-0.38
Cc1cc(OCc2nc(-c3ccc(Br)cc3)no2)ccc1Cl	0.93	-0.5
Cc1cc(N2CCC(C(=O)Nc3ccccn3)CC2)n2nc(C)c(-c3ccc(Cl)cc3)c2n1	1	0.38
O=C(C1CCCCC1)N1CCNc2ccccc2C1	0.82	-2.2
CCOC(=O)Cc1csc(NC(=O)COc2ccccc2OC)n1	1.2	1.5
O=C(Cn1nc(Cc2ccncc2)c2ccccc2c1=O)Nc1ccc(Cl)cc1	1.2	1.8
CCOc1ccc(CCNS(=O)(=O)c2cnc[nH]2)cc1OCC	0.99	-0.011
CCN(CC)c1cc(C)c2cc(NC(=O)c3cccs3)ccc2n1	1	0.19
Cc1oc(-c2ccccc2F)nc1CN1CCC(C(=O)NCc2cccs2)CC1	0.97	-0.67
CCC1CCCCN1CCCNC(=O)c1cn(C2CCCC2)c(=O)c2c1c1ccccc1n2C (stereo not drawn)	0.93	-2.1

Structure	CBX7 AlphaScr	CBX7 AlphaScr z-score
CCN(CC)C(=O)Cn1cnc2sc(C(=O)NCC(=O)OC)c(C)c2c1=O	1	0.12
CCOC(=O)c1cc(-c2ccccc2)n(CCC(=O)Nc2ccc(C)c(Cl)c2)c1C	0.96	-0.75
Cc1ccc2c(c1)N(CCCC(=O)NCc1ccccc1Cl)C(=O)CO2	1.4	0.89
Cn1c(=O)[nH]c(=O)c2c1nc(CN1CCOCC1)n2Cc1ccccc1F	1	1.7
CCc1ccc(NC(=O)Cn2nc(Cc3cccnc3)c3ccccc3c2=O)cc1	0.95	-0.07
NS(=O)(=O)c1ccc(CCNc2ncnc3c2cnn3-c2ccc(Cl)cc2)cc1	0.92	-0.28
COc1cccc(CNC(=O)Cn2nc(Cc3ccncc3)c3ccccc3c2=O)c1	1.1	1.2
O=C1c2ccccc2C(Nc2ccc(S(=O)(=O)N3CCOCC3)cc2)N1c1ccccn1 (stereo not drawn)	0.92	-2.5
COc1ccc2oc(=O)c(-c3nc(-c4ccccc4)n[nH]3)cc2c1	1.1	0.51
CCOC(=O)c1cnc2ccc(OCC)cc2c1NCCN1CCOCC1	1.5	4.8
O=C(CCCOc1ccc(Cl)cc1Cl)Nc1ccncc1	1	0.27
CCC1Sc2ccccc2N(CC(=O)NCCN2CCOCC2)C1=O (stereo not drawn)	1	-0.092

# Record cards (already shown). Screens in order: CBX7 AlphaScr, CBX7 AlphaScr z-score
# CCN(CC)C(=O)Cn1cnc2sc(C(=O)NCC(=O)OC)c(C)c2c1=O is entered as 1, 0.12
# CCC1Sc2ccccc2N(CC(=O)NCCN2CCOCC2)C1=O (stereo not drawn) is entered as 1, -0.092
# O=C(CCCOc1ccc(Cl)cc1Cl)Nc1ccncc1 is entered as 1, 0.27
# COc1cccc(CNC(=O)Cn2nc(Cc3ccncc3)c3ccccc3c2=O)c1 is entered as 1.1, 1.2

# Following part:
Structure	CBX7 AlphaScr	CBX7 AlphaScr z-score
CCc1cccc(NC(=O)c2cc3c(-c4cccc(OC)c4)nn(C)c3s2)c1	0.98	-0.43
O=C(Nc1cccc(-c2nc3ncccc3o2)c1)c1ccc(Cl)c(Cl)c1	0.97	-0.19
Cc1cc(OCc2nc(-c3ccc(NC(=O)c4cccnc4)cc3)no2)ccc1Cl	1	0.23
CC1CCCN(S(=O)(=O)c2ccc3[nH]c(=O)cc(C(=O)NC4CC4)c3c2)C1 (stereo not drawn)	1	0.24
Cc1onc(-c2ccccc2Cl)c1C(=O)Nc1sc2c(c1C#N)CCCC2	0.96	-0.63
CCOc1ccc(NC(=O)Cn2cc(S(=O)(=O)c3ccc(F)cc3)c(=O)c3ccccc32)cc1	0.87	-1.9
COc1ccc(OC)c(-n2cnc3cc(C(=O)NC4CCCC4)ccc32)c1	0.95	-0.6
CCCNC(=O)c1cnn2c(C)c(Cc3c(F)cccc3Cl)c(C)nc12	0.85	-2.8
Cc1cccc(NC(=O)CSc2nccn2-c2ccccc2)c1C	0.77	-4.9
CCOc1ccc2nc(N3CCCC(C(=O)NCc4ccc5c(c4)OCO5)C3)sc2c1 (stereo not drawn)	0.94	-1.6
CCOC(=O)C(C)NC(=O)c1cc2c(s1)-c1c(C)cccc1OC2 (stereo not drawn)	1.3	8.3
CC(=O)N1CCc2cc(S(=O)(=O)NC(Cc3ccccc3)C(=O)Nc3ccc(C)cc3)ccc21 (stereo not drawn)	1.1	1.5
O=C(Cc1ccc(F)cc1)Nc1c2c(nn1-c1cccc(Cl)c1)CS(=O)(=O)C2	1	0.3
COc1ccccc1CN1C(=O)c2ccncc2C1=O	1.1	1.4

# Not all compounds are listed, so the mix of outcomes need not match the whole.
